# MbtI inh = inhibitors of Mycobacterium tuberculosis siderophore enzyme MbtI | inhibition, %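 (about 17 µg/mL by stock and volumes)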 | hit rate 0.89% among 100,000 | purified MbtI enzyme, fluorescence intensity read-out | P9WFX0;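 active = above 50% in both replicates, above 80% if mildly self-fluorescent; inactive = the rest, strongly fluorescent compounds included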;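 also: 0% = mean of negative and 100% = mean of positive controls; one replicate is shown; some compounds called inactive have numbers as strong as hits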
# Target sequence (P9WFX0 whole entry, looked up): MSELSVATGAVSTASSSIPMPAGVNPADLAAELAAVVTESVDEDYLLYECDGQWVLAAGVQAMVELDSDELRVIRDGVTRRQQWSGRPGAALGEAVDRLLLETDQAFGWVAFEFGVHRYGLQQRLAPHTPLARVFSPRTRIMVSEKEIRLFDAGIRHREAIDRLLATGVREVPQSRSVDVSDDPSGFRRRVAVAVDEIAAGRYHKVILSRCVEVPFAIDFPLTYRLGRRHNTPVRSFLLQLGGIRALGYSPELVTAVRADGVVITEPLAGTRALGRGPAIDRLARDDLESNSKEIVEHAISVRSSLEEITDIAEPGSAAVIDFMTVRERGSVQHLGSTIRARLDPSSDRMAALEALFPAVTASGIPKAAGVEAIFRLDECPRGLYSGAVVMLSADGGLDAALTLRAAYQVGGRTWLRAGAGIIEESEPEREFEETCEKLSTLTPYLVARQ
# PV pol inh = inhibitors of poliovirus RNA polymerase binding and polymerization | AID 588519 | poliovirus polymerase elongation, fluorescence polarization; active compounds read low | P03300 | hit rate 0.66% among 150,000 | % elongation, % (compound at 16.7 µg/mL); in the data active = % elongation below about 90%; also: some results filed as inactive read as strong as hits
# MenB inh = blocks the Mycobacterium tuberculosis MenB enzyme. MenB enzyme assay, absorbance read-out; some hits fall short of the stated cut. inhibition, %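 (about 12 µg/mL by stock and volumes)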. hit rate 0.43% among 100,000. AID 540299;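 active = mean of two replicates above 30%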;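 also: 0% = no compound and 100% = wells with inactive enzyme; the first replicate is given; strong numbers were not always called active; inactives centre near -10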
# Target sequence (P9WNP5 whole entry, looked up): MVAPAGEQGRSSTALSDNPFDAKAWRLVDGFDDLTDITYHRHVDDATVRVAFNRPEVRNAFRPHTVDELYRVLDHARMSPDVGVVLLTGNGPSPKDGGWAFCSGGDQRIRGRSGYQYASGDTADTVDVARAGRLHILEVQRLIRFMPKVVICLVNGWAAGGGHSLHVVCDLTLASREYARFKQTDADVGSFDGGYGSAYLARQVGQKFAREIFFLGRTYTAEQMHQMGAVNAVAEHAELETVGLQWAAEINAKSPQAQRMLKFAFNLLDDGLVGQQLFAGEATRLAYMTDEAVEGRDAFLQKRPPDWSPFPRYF
# PV pol inh intensity = further read-out of PV pol inh, marked with its call; % elongation; measured here: total intensity read-out; formula for this scale not given here;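 total fluorescence in place of polarization; lower means less elongation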
# * hit, by the source's call; · = not tested or not shown; & = joins results of further samples.
SMILES,MbtI inh,PV pol inh,PV pol inh intensity,MenB inh
C=CCOC(=O)c1sc(N2CCCC2=O)c(C(=O)OCC)c1C,8,102,113,3
N#CCc1ccc(OCc2cc(C(F)(F)F)cc(C(F)(F)F)c2)cc1,-15,109,115,-14
Cc1nn(CC(=O)N2CCC(C)CC2)c(C)c1S(=O)(=O)N1CCOCC1,-7,103,104,-1
COc1ccc(-n2cnnc2SCC(=O)N2CCN(S(=O)(=O)c3ccccc3)CC2)cc1,-32,100,93,-11
CS(=O)(=O)N1CCNCC1,-13,103,101,-36
CCn1c(CCCCCCN)nnc1SC,-7,101,98,-2
O=C(c1ccc(S(=O)(=O)N2CCCCC2)cc1)N1CCN(Cc2ccc3c(c2)OCO3)CC1,-11,102,105,-17
N#Cc1c(/N=C/c2ccccc2)sc2c1CCCC2,4,101,97,3
CCNS(=O)(=O)c1ccc(CCC(=O)NCc2ccco2)cc1,-18,101,104,-3
C=CCOc1ccc(NC(=O)c2cccs2)cc1,-8,106,100,-23
CCn1c(-c2ccc(OC)cc2)csc1=Nc1ccc(NC(C)=O)cc1,-1,99,100,-25
CCOC(=O)c1noc2ncnc(NCCc3ccccc3)c12,3,101,100,-33
COc1ccc(C2C(C(=O)O)CC(=O)N2c2ccc(OC)cc2)cc1 (configuration not stated),-6,101,102,-5
O=C(NCCc1ccccc1)N1CCn2cccc2C1c1ccccc1 (configuration not stated),-1,103,112,-18
CCOc1ccc(NC(C)C(=O)N/N=C/c2ccc(N(C)C)cc2)cc1 (configuration not stated),-2,106,100,-35
Cc1cc(OCC(F)(F)C(F)(F)C(F)(F)C(F)F)nc(N)n1,1,100,98,-10
O=C(NCc1cn2ccccc2n1)c1ccccc1F,-45,101,107,5
Cc1ccc(-c2onc3ccc(C(=O)NCCO)cc23)cc1,20,100,103,-31
CCOC(=O)N1CCc2c(sc(NC(=O)CN3CCc4ccccc43)c2C#N)C1,-10,107,107,-17
CCOc1nc(Nc2ccc(OC)cc2)nc(N2CCOCC2)n1,-5,104,101,-67
C=CCn1c(=O)n(CC=C)c(=O)n(CC(=O)NC(C)COC)c1=O (configuration not stated),-11,106,111,-7
CC(C)C(=O)OCC(=O)Nc1ccc2c(c1)CCC2,-1,103,104,4
CCn1cc(C(=O)N2CCCCCC2)c(=O)c2cc(S(=O)(=O)N3CCCCC3)ccc21,-5,99,103,8
S=C(NCc1ccco1)NCc1cccs1,-9,97,106,-32
O=C(Cn1ncc2c([nH]c3ccccc32)c1=O)N(Cc1ccco1)C1CCCC1,94,104,103,-11
CC(C)=NNc1nc2ccccc2[nH]1,6,104,105,-25
Cc1nc(-c2sc3ccc(Cl)cc3c2C)cs1,1,103,106,-11
Cc1cc(C)c(NC(=O)CCCN2CCCC2)c(C)c1,-8,102,105,-3
Cc1c2c(cc3c4c(c(=O)oc13)CCCC4)CN(CCc1ccc(F)cc1)CO2,-64,101,97,-9
CC(C#N)Oc1ccc(C(=O)c2ccccc2)cc1 (configuration not stated),-4,101,93,-33
O=C(O)COc1ccccc1S(=O)(=O)C(F)F,-3,96,105,4
CC1(C)Cc2nc3sc(C(=O)NN)c(N)c3cc2CO1,15,100,99,-38
Cc1ccc(OCCOn2nnc3ccc(S(=O)(=O)N4CCOCC4)cc32)cc1,4,104,107,-26
COc1ccc(NC(=O)c2sc3nc(-c4cccs4)ccc3c2N)cc1OC,6,107,108,-34
Cc1cc(C(=O)Nc2sc(C)c(C)c2C#N)cs1,11,100,102,-15
O=C1C(C=Nc2ccccc2)=C(O)c2ccccc21,-12,103,101,-59
CCN1CCCC1CNc1nc2ccc(Cl)cc2n2cnnc12 (configuration not stated),-2,100,107,12
O=C(O)CC(C(=O)O)c1ccc(F)cc1 (configuration not stated),·,108,103,-8
CC(CC(=O)NCc1ccccc1)C1CCCO1 (configuration not stated),0,99,102,8
O=C(NCCC(=O)N1CCCC1)Nc1ccc(Cl)c(Cl)c1,-5,·,·,1
Cc1ccccc1N=Cc1sc2ccccc2c1O,-4,75,194,-16
O=C(O)CONS(=O)(=O)c1ccc(F)cc1,-9,97,101,0
COc1cccc(/C=C2\N=C(SC)SC2=O)c1,1,100,105,-25
Cc1ccccc1OCCNC(=O)c1ccco1,·,107,111,-9
Cc1cc(C(=O)COC(=O)c2ccc(S(=O)(=O)N3CCCC3)cc2)c(C)n1Cc1cccs1,9,98,95,-8
O=C(/C=C/c1ccc(F)cc1)OCC(=O)c1ccccc1,2,102,104,·
COc1ccccc1N1CC(C)(C)C(=O)N(C(=O)c2ccc(C)cc2)C1=S,-6,107,94,-44
COc1ccc(CCNC(=O)C2COc3ccccc3O2)cc1 (configuration not stated),-2,102,101,22
Cc1ccc(-n2ncc3c(=O)n(CC(=O)NC4CCCCC4)cnc32)c(C)c1,-4,105,109,4
Cc1nnc(SCC(=O)c2cc(C)n(C(C)c3ccccc3)c2C)n(N)c1=O (configuration not stated),14,104,107,-25
NC(CCc1ccccc1Cl)c1ccc2c(c1)OCCO2 (configuration not stated),-7,102,110,2
CCN(CC)S(=O)(=O)c1ccc(N2CCc3ccccc32)nc1,29,103,95,-12
CCOc1ccc(CO)cc1OCC,-9,102,103,-3
O/N=C1\CCCc2nnc3c(c21)CCCC3,4,105,101,-18
c1ccc(CNc2nc3ccccc3n3nnnc23)cc1,6,94,122,-18
CCN1CCN(c2cc(C)c3ccc(OC)cc3n2)CC1,-6,100,101,·
Cc1noc(C)c1CSCC(=O)OCc1cc(=O)n2c(n1)sc1ccccc12,-5,110,115,-21
O=C(COC(=O)c1cccc(S(=O)(=O)N2CCCCC2)c1)NCc1ccccc1,0,106,111,-18
O=C1CCC2(C(=O)O)SCCN12 (configuration not stated),-35,94,100,-9
CCOC(=O)c1sc2ccccc2c1Cl,-7,102,101,-80

# Individual results from above:
# COc1ccc(-n2cnnc2SCC(=O)N2CCN(S(=O)(=O)c3ccccc3)CC2)cc1 in PV pol inh → 100
# C=CCOC(=O)c1sc(N2CCCC2=O)c(C(=O)OCC)c1C in PV pol inh → 102

# Additional results:
SMILES,MbtI inh,PV pol inh,PV pol inh intensity,MenB inh
N#CCCn1cc(/C=C/C(=O)N2CCC(c3nc4ccccc4s3)CC2)c2ccccc21,-7,100,107,-15
O=C(NCCCSc1ccccc1)Nc1ccccc1,-10,110,109,-9
COCC(=O)N1CCC(n2nnc3cc(F)ccc32)CC1,9,102,100,-25
CCc1ccc(N2C(=O)C3CCCN3C2=S)cc1 (configuration not stated),19,102,98,2
O=c1c2ccccc2nnn1CN1CCN(S(=O)(=O)/C=C/c2ccccc2)CC1,6,108,110,-1
O=C(NCc1ccccc1)c1cn(-c2ccccc2)nc1-c1cccs1,48,100,101,-29
COc1ccc(-c2cc(-c3ccccc3)c(C#N)c(SCCS(=O)Cc3ccccc3)n2)cc1 (configuration not stated),46,98,99,-24
O=C(Nc1cccc(Cl)c1)C1CCN(c2ccc(C(F)(F)F)cn2)CC1,-5,104,100,-8
CCCC(=O)Nc1ccc(C(=O)CSc2nnc(Cc3ccccc3)o2)cc1,-4,·,·,0
CN(C(=O)c1ccccc1)c1ccccc1,·,99,91,-30
CC(=O)N1N=C(CC#N)OC1(C)CC(=O)Nc1ccccc1 (configuration not stated),11,98,94,-19
CCOC(=O)Cn1nc(NC(=O)COc2ccc(F)cc2)cc1C,-20,104,103,-13
Cn1nc(-c2ccc(Cl)cc2)c2ccccc21,·,101,107,8
N#CCC1Nc2ccccc2S(=O)(=O)N1 (configuration not stated),2,102,98,-98
O=C(CN1CCN(C/C=C/c2ccccc2)CC1)Nc1ccccc1C(=O)NC1CC1,-2,99,102,15
CCOC(=O)c1cc2c(c(CSc3nc4ccccc4c(=O)n3CCN3CCOCC3)c1)OCOC2,-1,99,92,8
O=C1CCCC2=C1C(c1ccc(Cl)cc1)Nc1ccccc1N2 (configuration not stated),12,100,102,-1
O=C(c1cccs1)N1N=C2c3ccccc3CCC2C1c1ccccc1Cl (configuration not stated),9,110,108,0
Cc1[nH][nH]c(=O)c1Sc1nc2ccccc2[nH]1,5,107,105,11
COc1cc(C=C(C#N)C#N)cc2c1OCO2,-61,98,102,-154
Cc1sc2nc(SCc3nc(-c4cccs4)no3)n(-c3ccccc3)c(=O)c2c1C,-7,102,104,-11
O=c1oc2c3ccccc3c3oc(=O)sc3c2s1,17,97,96,9
Cc1nn2c3ccccc3nc2n1CCN1CCCCC1,-2,99,103,·
Oc1ccc(-n2cccc2)cc1,·,100,107,-11
CCC(Nc1ccc(Br)cc1)C(=O)N/N=C/c1ccco1 (configuration not stated),4,104,100,-17
Cc1cc(C(=O)O/N=C(\N)c2ccc(C(C)(C)C)cc2)no1,0,105,103,11
CNC(=O)c1ccc(C(=O)N(C(C)C)C(C)C)cc1,-2,101,102,-7
O=C(Nc1ccc(-n2cnnn2)cc1)C1CC(=O)N(C2CCCC2)C1 (configuration not stated),-5,103,109,9
COc1ccc(OC)c(C(=O)CSc2nc3ccccc3o2)c1,3,112,126,-21
O=C(O)C1CC1(C(=O)O)C(F)(F)F (configuration not stated),0,102,101,11

# Part of the list above in order of length of the SMILES, descending.
SMILES,MbtI inh,PV pol inh,PV pol inh intensity,MenB inh
CCOC(=O)c1cc2c(c(CSc3nc4ccccc4c(=O)n3CCN3CCOCC3)c1)OCOC2,-1,99,92,8
O=C(c1cccs1)N1N=C2c3ccccc3CCC2C1c1ccccc1Cl (configuration not stated),9,110,108,0
Cc1[nH][nH]c(=O)c1Sc1nc2ccccc2[nH]1,5,107,105,11

# Additional compounds
SMILES,MbtI inh,PV pol inh,PV pol inh intensity,MenB inh
CCCC(N)c1cccs1 (configuration not stated),0,103,105,-10
O=C(ON(C(=O)c1ccccc1)c1ccccc1)c1ccccc1,-6,102,106,·
NCCc1c[nH]c2ccc(O)cc12,-3&8,100&101&98,105&102&99,5&-1
CC(=O)NC1Sc2ccccc2N=C1c1ccccc1 (configuration not stated),6,104,104,-16
COc1cc2c(cc1OC)C1(CCC(O)CC1)CN(C)C2 (configuration not stated),·,105,91,-20
CCc1ccc2oc(-c3ccc(N)cc3)nc2c1,80,105,103,-42
CC(C)(C)OC(=O)N1CCN(c2ccc(NS(=O)(=O)c3ccc(Cl)cc3)cn2)CC1,-7,104,108,1
Cc1c(-c2ccccc2)[n+](=O)c(-c2ccco2)c(C)n1[O-],-28,103,104,-16
CNC(=S)N/N=C/c1ccc(C(=O)OC)cc1,0,103,108,-27
COCCn1cnc2c1c(=O)n(CC(=O)c1cc(C)n(-c3ccccc3)c1C)c(=O)n2CC(C)C,1,96,92,-27
C/C=C/C(=O)OCc1ccc(Cl)cc1Cl,0,104,98,·
Nc1nc(-c2ccc(Cl)cc2Cl)cs1,10,107,105,-17
CC1CCCCN1C(=O)c1ccc(S(=O)(=O)NCc2cccnc2)cc1 (configuration not stated),-3,103,102,3
CCSc1ccccc1C(=O)N1CC(=O)Nc2ccccc21,·,102,101,5
CCOC(=O)C1=C(O)CSC1=Nc1ccccc1,20,104,104,-23

# Entries of single compounds as entered above.
# Listed for Cc1c(-c2ccccc2)[n+](=O)c(-c2ccco2)c(C)n1[O-] : MbtI inh = -28; PV pol inh = 103; PV pol inh intensity = 104; MenB inh = -16
# Listed for COc1cc2c(cc1OC)C1(CCC(O)CC1)CN(C)C2 (configuration not stated) : MbtI inh = ·; PV pol inh = 105; PV pol inh intensity = 91; MenB inh = -20

# Part of the list above, reduced to PV pol inh intensity:
mol,PV pol inh intensity
C=CCn1c(=O)n(CC=C)c(=O)n(CC(=O)NC(C)COC)c1=O (configuration not stated),111
CC(C)C(=O)OCC(=O)Nc1ccc2c(c1)CCC2,104
CCn1cc(C(=O)N2CCCCCC2)c(=O)c2cc(S(=O)(=O)N3CCCCC3)ccc21,103
S=C(NCc1ccco1)NCc1cccs1,106
O=C(Cn1ncc2c([nH]c3ccccc32)c1=O)N(Cc1ccco1)C1CCCC1,103

# (cont.)
SMILES,MbtI inh,PV pol inh,PV pol inh intensity,MenB inh
Nc1c(Cl)ncnc1NCCCn1ccnc1,7,100,101,0
CC(=O)N1N=C(c2ccccc2)CC1c1cc2cc3c(cc2nc1Cl)OCO3 (configuration not stated),-1,103,102,19
COc1ccc2cc(COC(=O)c3c(OC)cccc3OC)c(Cl)nc2c1,9,101,103,-31
O=C(O)CCNc1cc(C(=O)O)ccc1C(=O)O,115,98,101,0
CC1(C)CC(=O)c2sc3nc(-c4ccc(Cl)cc4)cn3c2C1,1,105,104,-4
O=C(N=C1c2ccccc2CN1c1ccc(F)c(F)c1)c1cccnc1,-9,101,100,·
O=c1[nH]c2ccc(N=Cc3ccc4c(c3)OCO4)cc2[nH]1,·,94,61,-7
C[N+]1(c2cccc(C(F)(F)F)c2)CCC(N)=N1 (configuration not stated),·,104,102,0
NC1=NC2(CCN(Cc3ccccc3)CC2)n2c(nc3ccccc32)N1,-1,99,101,-57
CC(=O)Nc1ccc(N2COc3ccc(NC(C)=O)cc3C2)cc1,-16,102,102,-2
CN(C)S(=O)(=O)c1ccc(C(=O)Oc2cc(Cl)c[nH]c2=O)cc1,-9,92,93,-19
Cc1ccc(CNC(=O)Cn2ccn(-c3ccccc3)c(=O)c2=O)cc1,7,102,98,15
CC(C)C(=O)N=C1SC2CS(=O)(=O)CC2N1c1ccccc1 (configuration not stated),-3,102,105,4
NC(=O)COC(=O)c1sc2ccccc2c1Cl,14,99,99,·
O=C(CC(=O)Nc1ccccn1)Nc1ccc2nc3n(c(=O)c2c1)CCCCC3,18,101,102,8
CCS(=O)(=O)N1CC(C)OC(C)C1 (configuration not stated),-16,99,103,-7
COc1cccc(C(=O)Nc2cc(C)on2)c1,11,102,100,12

# Screens from PubChem.
